motility: Vibrio cholerae motility inhibitors, OD read-out (AID 588778); Vibrio cholerae motility, OD read-out; higher % means a stronger effect; test concentration not given here; primary cut-off and reference of the scale not given here; strong numbers were not always called active; 10,000 tested, under 10 active; one-dose inhibition, %; IC50 in µg/mL for titrated hits; in the data active = confirmed in a dose series
motility viability: second read-out of motility, no call of its own (marks repeat the call); inhibition, %; measured here: bacterial viability at 10 ug/mL;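 higher means fewer living bacteria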
Starred values were filed as active, the others as inactive.

SMILES	motility	motility viability
C=CCSc1nnc(NC(=O)CSc2nnnn2-c2ccccc2)s1	-36%	-13
CCN1CCCC1CNCc1c(Cl)cccc1Cl (stereo unspecified)	7%	1
CC12CC3(C)CC(C)(C1)CC(NC(=O)NC(C)(C)C)(C2)C3	-3%	-4
FC(F)(F)c1ccccc1CNCCc1c[nH]c2ccccc12	46%	12
Cc1ccc(C23CC4CC(CC(C(=O)NN5CCN(CCO)CC5)(C4)C2)C3)cc1	-6%	4
CN(C)CCNC(=S)NC(=O)CC12CC3CC(CC(C3)C1)C2	0%	3
Cc1onc(-c2ccccc2)c1C(=O)NC(=S)Nc1sc2c(c1C#N)CCC2	6%	19
O=C(Cn1nc(-c2ccccc2)c2ccccc2c1=O)c1cccs1	13%	0
N#Cc1ccccc1NC(=O)CSc1ccc(Cl)cc1	-5%	-2
O=C(NNC(=O)c1ccco1)C(=O)N1CCCCC1	-1%	-6
CN(C)c1ccc(-c2nc(-c3ccccc3)c(-c3ccc([N+](=O)[O-])cc3)[nH]2)cc1	-55%	-12
CCc1nc(SCC(=O)c2ccc(O)cc2O)n[nH]1	12%	-4
CCC1(C)Cc2c(sc3[nH]c(=S)n(-c4ccccc4C)c(=O)c23)CO1 (stereo unspecified)	-9%	-9
CCCCN(Cc1cc2cc(OC)ccc2[nH]c1=O)S(C)(=O)=O	-5%	-2
Fc1ccccc1-c1nc(N2CCCC2)c2ccccc2n1	6%	1
COc1ccc2sc(N3C(=O)C4CC=C(C)CC4C3=O)nc2c1 (stereo unspecified)	-2%	1
N#CCC(=O)NNC(=S)NCc1ccc(Cl)cc1	6%	9
O=C(c1c[nH]c2ccccc12)C(O)C(c1ccccc1)N1CCOCC1 (stereo unspecified)	-26%	-3
O=[N+]([O-])c1cccc(NC(=S)Nc2ccc(CN3CCCCC3)cc2)c1	6%	-9
Cn1c(CC(=O)Nc2ccc(Cl)c(Cl)c2)nnc1SCC(=O)N1CCN(c2ccccc2)CC1	4%	28
COc1ccccc1C(CCNCc1ccc(OC(C)C)cc1)c1ccc2c(c1)OCO2 (stereo unspecified)	48%	50
COc1cc(C)c(NC(=O)COc2ccc3c(c2)OCO3)cc1C	-4%	-4
Cc1c(C=O)c(C=O)c(C)n1-c1cccc(SC(F)F)c1	-4%	-9
COc1ccc(Cc2n[nH]c(=S)n2Cc2ccccc2)cc1Cl	4%	-1
O=C1N(Cc2cccs2)c2ccccc2C1(O)c1c[nH]c2ccccc12 (stereo unspecified)	2%	-2
Cc1nc(SCC(=O)Nc2c(C)cccc2C)n[nH]1	7%	-4
C=CCn1c(CCSCc2ccccc2)n[nH]c1=S	1%	1
CCCS(=O)(=O)c1ccc(COc2ccc(C3CCCCC3)cc2)cc1	-2%	4
Cc1ccc2nc(-c3cccnc3)cc(C(=O)Nc3ccc4c(C)cc(=O)oc4c3)c2c1	-7%	9
NS(=O)(=O)c1ccc(NCc2c(F)cccc2Cl)cc1	6%	-4
Cc1nnc(-c2ccc(NCC3CCCO3)c([N+](=O)[O-])c2)o1 (stereo unspecified)	-2%	1
O=C(NC(=S)Nc1cccc2ncccc12)c1ccc2c(c1)OCCO2	13%	-6
CCc1sc(C(=O)Nn2cnnc2)cc1Br	-7%	-1
COc1ccccc1CNC(=O)CCSc1ccc(Cl)cc1	14%	4
Cc1cccc(CN2CCN(Cc3ccccc3F)CC2)c1	11%	30
Cc1ccc(C(C)C)cc1S(=O)(=O)Nc1cccnc1	-3%	5
CC(=O)c1cccc(NC(=O)Nc2cnccn2)c1	18%	6
Cc1cc(-c2nc3cc(N)ccc3o2)ccc1Br	14%	-3
O=[N+]([O-])c1c(Sc2ncnc3ccccc23)ccc2nsnc12	8%	29
CC1=NC(C(F)(F)F)(C(F)(F)F)c2c(n(-c3ccc(C)c(C)c3)c(=O)[nH]c2=O)N1	-11%	-6
N#Cc1c(NC(=O)c2ccc(Cn3cc(Br)cn3)o2)sc2c1CCCCCC2	-4%	-12
COc1ccc2nc(/C(C#N)=C\c3ccc4c(c3)n(C)c(=O)n4C)[nH]c2c1	-10%	-4
COc1ccc(N2CCN(S(=O)(=O)c3ccccc3C(F)(F)F)CC2)cc1	-7%	-6
Cc1noc(NS(=O)(=O)c2ccc(NC(=O)c3ccc(Cl)s3)cc2)c1C	3%	-2
O=C(c1ccc([N+](=O)[O-])cc1)N(Cc1cccs1)C1CCS(=O)(=O)C1 (stereo unspecified)	2%	-2
COC(=O)c1cccc(NC(=O)Cn2ccnc2)c1	12%	-6
Cc1onc(-c2ccccc2)c1C(=O)Nc1ccc(Cl)cn1	-3%	-3
O=C(Nc1nnc(C2CCCCC2)s1)c1ccc2c(c1)OCO2	23%	-1
CCN(C(=O)Nc1ccccc1OC)c1ccc(C(O)(C(F)(F)F)C(F)(F)F)cc1	6%	0
CC(=O)Nc1ncc(CN2CCN(C(c3ccccc3)c3ccccc3)CC2)s1	-4%	-1
CCOC(=O)C1(NC(=S)N(CC)CC)Sc2cc(C)ccc2NC1=O (stereo unspecified)	12%	13
COc1cc(OC)c(C(=O)NNC(=S)Nc2cccc3ccccc23)cc1OC	-8%	-6
CCOc1ccccc1C(=O)NCCCn1ccnc1	-5%	2
Cc1cc(C(=O)NNC(=O)COc2c(C)cc(Br)cc2C)n[nH]1	-6%	-7
O=C(Nc1cccc(Cl)c1)c1ccc(=O)[nH]c1	-1%	-2
O=C(O)c1coc(COCC(F)(F)F)c1	-4%	-2
Cc1ccc([N+](=O)[O-])c(OCCn2cnc3ccccc32)c1	9%	-2
COc1ccc2nc(SCCOC(=O)Nc3ccc(Cl)cc3)nc(C)c2c1	2%	-2
COc1cc(C)c(C(C)C)cc1S(=O)(=O)n1cnc(C)c1	-4%	-4
COC(=O)c1ccccc1NC(=O)C1CC=CCC1C(=O)O (stereo unspecified)	8%	-1
Continuation:
SMILES	motility	motility viability
NC(=O)c1ccccc1NC(=O)Nc1cccc([N+](=O)[O-])c1	-3%	-5
O=C(NNC(=S)Nc1ccc(F)cc1F)Nc1ccc(Br)cc1	32%	6
CC(C)(C)c1ccc(SCC(N)=O)cc1	5%	-2
O=C(Nc1cccc(Br)c1)c1ccccc1C(F)(F)F	4%	-3
O=C(NCCN1CCOC1=O)C(=O)NCCN1CCOC1=O	-6%	0
Cc1c(Cl)ccc(OCCCNCCN(C)C)c1C	19%	4
CC(Sc1cccc2cccc(C(=O)O)c12)C(=O)O (stereo unspecified)	5%	4
COc1ccc(Nc2ncc(-c3cc4cc(OC)ccc4oc3=O)s2)cc1	19%	6
COc1ccc(-n2nc3ccc(NC(=O)c4cc5ccccc5o4)cc3n2)cc1	-2%	-4
Cn1c(Cc2ccc(Cl)cc2)nc2ccccc21	26%	0
O=C(CSc1nc(-c2ccccc2)nc2ccccc12)Nc1nccs1	-6%	-1
COc1ccccc1Oc1c(C)oc2cc(OC(=O)c3ccco3)ccc2c1=O	4%	22
Cc1ccc(-n2c(SCc3ccccc3)nc(O)cc2=O)cc1	-24%	-15
COc1c(C)cccc1C(=O)N1CCN(c2ncccn2)CC1	-2%	4
CCC(C)Sc1nc2c(c(=O)[nH]1)C(c1ccncc1)C1=C(CC(C)(C)CC1=O)N2 (stereo unspecified)	-9%	-8
S=C(NCc1ccc2c(c1)OCO2)Nc1ccc2nsnc2c1	48%	6
O=C(CCSc1nc2ccccc2o1)N1CCOCC1	9%	-5
Cc1cc(=O)oc(C)c1C(=O)OCC(=O)c1ccc(OC(=O)c2ccccc2)cc1	-1%	-1
C=CCNC(=O)COc1c(C)ccc(C)c1C	4%	6
CCOC(=O)c1ccc(NC(=O)CC2SC(=Nc3ccc(S(N)(=O)=O)cc3)NC2=O)cc1 (stereo unspecified)	13%	-1

Compound profiles, as listed above. Order of screens: motility	motility viability
CC(C)(C)c1ccc(SCC(N)=O)cc1 as listed: 5%	-2
Cc1cc(C(=O)NNC(=O)COc2c(C)cc(Br)cc2C)n[nH]1 as listed: -6%	-7

Two entries drawn at random from the list so far:
SMILES	motility	motility viability
CC(Sc1cccc2cccc(C(=O)O)c12)C(=O)O (stereo unspecified)	5%	4
COc1ccc(Nc2ncc(-c3cc4cc(OC)ccc4oc3=O)s2)cc1	19%	6

Back to the main list; the seven compounds before the break are reprinted first.
SMILES	motility	motility viability
COc1c(C)cccc1C(=O)N1CCN(c2ncccn2)CC1	-2%	4
CCC(C)Sc1nc2c(c(=O)[nH]1)C(c1ccncc1)C1=C(CC(C)(C)CC1=O)N2 (stereo unspecified)	-9%	-8
S=C(NCc1ccc2c(c1)OCO2)Nc1ccc2nsnc2c1	48%	6
O=C(CCSc1nc2ccccc2o1)N1CCOCC1	9%	-5
Cc1cc(=O)oc(C)c1C(=O)OCC(=O)c1ccc(OC(=O)c2ccccc2)cc1	-1%	-1
C=CCNC(=O)COc1c(C)ccc(C)c1C	4%	6
CCOC(=O)c1ccc(NC(=O)CC2SC(=Nc3ccc(S(N)(=O)=O)cc3)NC2=O)cc1 (stereo unspecified)	13%	-1
CCO/C=N/c1c(C#N)c(CC#N)nn1-c1ccccc1	6%	-1
Nc1nncn1C(=O)c1ccccc1I	-4%	-5
O=C(NCc1cccs1)C(=O)Nc1ccc2c(c1)OCO2	2%	-5
Cc1nc(-c2cc3ccccc3oc2=O)cc2c1c(=O)oc1ccccc12	0%	-3
S=c1[nH]c2cc3ccccc3cc2[nH]1	161%	33
O=C(Nc1ncn[nH]1)c1cc2ccccc2o1	5%	-4
Cn1cc(C(=O)NNC(=S)Nc2ccc(Br)cc2Cl)c2ccccc21	40%	5
CS(=O)(=O)Nc1ccc(-c2cn3cccnc3n2)cc1	-3%	-3
CC(NC(=O)c1ccc(Cl)cc1)C(=O)NC(C)(C)CO (stereo unspecified)	-5%	-6
Cc1cc(C)n(-c2nc3ccccc3nc2N2CCN(C(=O)c3ccc(Cl)cc3)CC2)n1	11%	4
COc1ccc(NC(=S)NNC(=O)COc2cccc(C(F)(F)F)c2)cc1OC	4%	-4
Cc1cccc2sc(NC(=O)c3ccccc3Br)nc12	-26%	-5
COc1cc(OC)c([N+](=O)[O-])cc1/C=C(/C#N)c1ccc(Cl)cc1	-8%	-2
Cc1cc(NS(=O)(=O)c2ccc(CC(C)C)cc2)no1	16%	10
COC(=O)c1ccccc1NC(=O)c1cnn2cccnc12	0%	1
O=C(Cc1c(F)cccc1Cl)Nc1nc2ccccc2s1	18%	-3
Cc1ccc(-c2csc3ncnc(SCC(=O)NCc4ccc5c(c4)OCO5)c23)cc1	-2%	-1
COc1ccccc1N1CCN(c2ccc([N+](=O)[O-])c(C(=O)O)c2)CC1	22%	14
CS(=O)(=O)c1ncc(Cl)c(C(=O)Nc2cc(C(F)(F)F)ccc2Cl)n1	-16%	-3
O=C(COC(=O)C1C=CCCC1)c1ccccc1 (stereo unspecified)	3%	-6
Cc1ccc(Nc2ccc(S(=O)(=O)C(F)F)cc2[N+](=O)[O-])cc1	-1%	11
CS(=O)(=O)CCC(C(=O)OC(c1ccccc1)c1ccccc1)N1C(=O)c2ccccc2C1=O (stereo unspecified)	9%	8
Cn1c(SCCOc2ccccc2F)nc2ccccc21	5%	27
CCn1c(COc2cccc3cccnc23)nnc1SCC(=O)c1ccc(Cl)cc1Cl	-1%	-3
Cc1ccccc1N1CCN(C(=O)c2c(C)oc3cc4c(C(=O)N5CCN(c6ccccc6C)CC5)c(C)oc4cc23)CC1	-2%	-5
CC(C)CC(C(=O)Oc1ccc2c3c(c(=O)oc2c1)CCC3)N1C(=O)c2ccccc2C1=O (stereo unspecified)	7%	-2
O=C(CN1CCc2ccccc2C1)NC1CC2CCC1C2 (stereo unspecified)	11%	1
Cc1nc2ccccc2nc1OCc1cccc([N+](=O)[O-])c1	-11%	5
CSc1ccccc1NC(=O)CN(C)S(=O)(=O)c1ccc(F)cc1	9%	3
CC1(C)CC(=O)c2cnc(NC(=O)c3ccco3)nc2C1	13%	7
O=C(CNS(=O)(=O)c1ccc([N+](=O)[O-])cc1)OCc1c(F)cccc1Cl	0%	-2
O=C(NCC1CCCO1)c1ccc(COc2cccc3ccccc23)cc1 (stereo unspecified)	0%	1
Cn1nnc(C(O)CNCc2cccs2)n1 (stereo unspecified)	-30%	-2
COc1ccc(Cl)cc1NC(=S)Nc1ccccc1N1CCOCC1	20%	4
N#C/C(=C\c1ccc(N2CCC(Cc3ccccc3)CC2)c([N+](=O)[O-])c1)c1nn(CCO)c(N)c1C#N	-18%	-3
Cc1ccsc1/C=C(\C#N)c1nc2ccccc2[nH]1	57%	0
CCCCc1nc(NCCO)c(C#N)c2c1CCCC2	14%	27
OC1/C(=C/c2cccs2)N2CCC1CC2 (stereo unspecified)	7%	1
O=S(=O)(Nc1cc(SCc2ccccc2)c(O)c2ccccc12)c1ccc(F)cc1	13%	3
CC(C)(C)NC/C=C(\Sc1nnnn1-c1ccccc1)c1ccccc1	23%	2

A draw from above in order of molecular weight, lowest first.
SMILES	motility	motility viability
CC1(C)CC(=O)c2cnc(NC(=O)c3ccco3)nc2C1	13%	7
CC(C)(C)NC/C=C(\Sc1nnnn1-c1ccccc1)c1ccccc1	23%	2
O=S(=O)(Nc1cc(SCc2ccccc2)c(O)c2ccccc12)c1ccc(F)cc1	13%	3
CCn1c(COc2cccc3cccnc23)nnc1SCC(=O)c1ccc(Cl)cc1Cl	-1%	-3
CS(=O)(=O)CCC(C(=O)OC(c1ccccc1)c1ccccc1)N1C(=O)c2ccccc2C1=O (stereo unspecified)	9%	8
N#C/C(=C\c1ccc(N2CCC(Cc3ccccc3)CC2)c([N+](=O)[O-])c1)c1nn(CCO)c(N)c1C#N	-18%	-3

High-throughput results deposited in PubChem BioAssay by Southern Research Institute.

An excerpt; rates above refer to the full screens.
